# B2AR ag = agonists of human beta-2 adrenergic receptor inducing internalization. P07550. Am2.2-beta2AR cells, FAP receptor internalization, flow cytometry; reference of the scale not given here. response, % (no concentration beside the values). 340,000 tested, 0.43% active. AID 504454;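 active = response above a set limit, near 3 SD of response in nonfluorescent compounds, cut at about 42% in these data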;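 also: stock transfer was 100 nL into about 11 µL; a reference agonist was the positive control; negative values mostly stem from fluorescent compounds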
# A1 inh = inhibitors of the anti-apoptotic protein A1, read as caspase activation; MEF A1-2A-BIM cells, Caspase-Glo 3/7 luminescence, 3 h; percent of clofoctol response, vehicle zero; caspase activation, % (test concentration not listed); 330,000 tested, 0.066% active; AID 2462;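 active = over half of replicate activation scores above 10%, or exactly half above 10 with the replicate mean above 10; inconclusive = replicate mean below 10 yet half the replicates above 10; inactive = over half of replicates below 10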;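 also: wells of about 30 µL received 50 nL stock; many hits fall short of the cut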
# T cruzi repl = blocks replication of Trypanosoma cruzi; 300,000 tested, 1.4% active; T. cruzi beta-gal in NIH3T3, luminescence, 90 h; AID 1885; inhibition, % (concentration not given with the values);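 active = mean inhibition across valid replicates above about 55%, limit read from the data; inconclusive = mean below that limit but half or more replicates reach it; inactive = mean below it, under half of replicates reach it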;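 also: signal also drops with host cell toxicity which is not excluded here; 0% = plate median of DMSO wells and 100% = zero luminescence signal; higher percent means less beta-gal luminescence so fewer parasites; stock transfer was 50 nL into about 50 µL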
# Beta apoptosis = beta cell apoptosis inhibition | AID 435005 | 300,000 tested, 0.8% active | protection from apoptosis, % (test concentration not listed) | INS-1E cytokine-induced death, ATP luminescence, 48 h; percent of positive-control rescue, neutral wells zero;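 active = all replicates at 75% or more, or half of them and the mean; inconclusive = half reach 75% but not the mean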;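 also: 0% = cytokine-treated negative control wells and 100% = positive control rescue; higher means more ATP so stronger rescue from cytokine killing; wells of about 40 µL received 100 nL stock; the first replicate is given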
# LANA-H2B inh = blocks KSHV LANA binding to histone H2A/H2B | Q9QR71 | AID 2629 | cell-free LANA-H2A/H2B peptide, fluorescence polarization | 320,000 tested, 0.6% active | inhibition, % (concentration not given with the values); in the data active = inhibition mostly above about 10%, no sharp cut-off; inactive = mostly below about 6.7%;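 also: stock transfer was 7.5 nL into about 10 µL; 0% = median of vehicle wells and 100% = median of positive control wells; one replicate is shown; the record names a cut of 25% in any replicate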
# Target sequence (Q9QR71 whole entry, looked up): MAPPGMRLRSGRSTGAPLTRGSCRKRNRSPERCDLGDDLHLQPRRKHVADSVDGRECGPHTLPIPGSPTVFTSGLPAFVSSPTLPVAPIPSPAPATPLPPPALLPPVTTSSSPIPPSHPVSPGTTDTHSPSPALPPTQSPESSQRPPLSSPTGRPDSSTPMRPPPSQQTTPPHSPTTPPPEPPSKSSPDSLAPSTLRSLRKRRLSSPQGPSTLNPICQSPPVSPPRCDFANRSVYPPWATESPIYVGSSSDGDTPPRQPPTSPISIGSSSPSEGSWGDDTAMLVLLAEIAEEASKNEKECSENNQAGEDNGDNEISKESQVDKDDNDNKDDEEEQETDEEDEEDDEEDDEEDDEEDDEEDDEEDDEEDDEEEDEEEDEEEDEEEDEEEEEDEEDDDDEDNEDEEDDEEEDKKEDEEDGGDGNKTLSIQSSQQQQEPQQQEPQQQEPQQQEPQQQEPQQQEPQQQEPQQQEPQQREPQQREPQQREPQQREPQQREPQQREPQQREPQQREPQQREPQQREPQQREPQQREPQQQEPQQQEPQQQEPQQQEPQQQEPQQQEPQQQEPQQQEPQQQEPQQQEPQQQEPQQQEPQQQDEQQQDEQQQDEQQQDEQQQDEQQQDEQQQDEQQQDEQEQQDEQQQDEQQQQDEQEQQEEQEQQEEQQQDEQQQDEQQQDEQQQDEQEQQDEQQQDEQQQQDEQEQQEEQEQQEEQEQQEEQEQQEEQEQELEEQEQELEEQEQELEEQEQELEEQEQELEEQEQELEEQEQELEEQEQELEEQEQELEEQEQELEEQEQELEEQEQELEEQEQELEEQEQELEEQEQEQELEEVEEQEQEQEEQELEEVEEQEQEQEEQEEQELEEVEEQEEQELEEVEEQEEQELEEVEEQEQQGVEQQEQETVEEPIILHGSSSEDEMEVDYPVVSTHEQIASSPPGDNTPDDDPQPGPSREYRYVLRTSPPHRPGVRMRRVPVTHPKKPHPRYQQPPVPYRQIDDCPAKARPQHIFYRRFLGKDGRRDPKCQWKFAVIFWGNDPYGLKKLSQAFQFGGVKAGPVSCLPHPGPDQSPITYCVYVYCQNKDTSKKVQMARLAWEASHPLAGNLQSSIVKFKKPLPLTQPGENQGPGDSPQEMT
# Ecoli rRNA inh = selective bacterial rRNA inhibition in E. coli; E. coli WT GFP vs humanized-ribosome RFP mutants, fluorescence, 24 h; stronger effect = lower value; DMSO median 0, no signal -100; GFP signal change (wild-type ribosome), % (concentration not given with the values); 350,000 tested, 1.6% active;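 active = significant combined selectivity score with lowered wild-type GFP, culture density cut under 30%, mutant RFP and density less affected; inactive = any of these conditions unmet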; also: one replicate is shown; some compounds called inactive have numbers as strong as hits
# ALR inh = blocks human ALR sulfhydryl oxidase activity. inhibition, % (concentration not given with the values). AID 485317. purified ALR, DTT oxidation, H2O2 HRP-luminol luminescence. P55789. 290,000 tested, 3.8% active;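 active = mean and each replicate at 75% or more; inconclusive = only one of the two met; inactive = neither met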;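 also: stock transfer was 7.5 nL into about 7.5 µL; 0% = neutral wells and 100% = wells with inactivated enzyme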
# Calb FLC = affects C. albicans growth with fluconazole; C. albicans CaCi-2 (fluconazole-resistant clinical isolate) + fluconazole, Alamar Blue growth, 48 h; growth inhibition, % (test concentration not listed); 300,000 tested, 0.57% active;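 active = most replicates above 75%; inconclusive = exactly half above 75%; inactive = most below 75%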;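 also: all wells also contain fluconazole at 8 µg/ml as a sub-toxic cotreatment; 0% = median of DMSO wells and 100% = median of geldanamycin control wells; wells of about 8 µL received 7.5 nL stock; the first replicate is given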
# Ecoli rRNA inh OD600 = recorded beside Ecoli rRNA inh, whose call it bears; OD600 change, %; measured here: OD600 growth;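 optical density of the mix in the first replicate; 0 = DMSO median and -100 = no signal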
# Ecoli rRNA inh RFP = further read-out of Ecoli rRNA inh, marked with its call; RFP signal change, %; measured here: RFP humanized mutant strains;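 first replicate; 0 = DMSO median and -100 = no signal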
# * hit, by the source's call; ? = inconclusive; . = no result given. An excerpt, so the mix of outcomes need not match the whole.
SMILES,B2AR ag,A1 inh,T cruzi repl,Beta apoptosis,LANA-H2B inh,Ecoli rRNA inh,Ecoli rRNA inh OD600,Ecoli rRNA inh RFP,ALR inh,Calb FLC
CC1CC(C)(C)n2c(O)c(N=NC(N)=S)c3cccc1c32 (configuration not stated),-8,0.0,53,19,3.6,-5,-8,-4.0,2,-4
Cc1ccc(S(=O)(=O)NCC(=O)OCC(=O)N(Cc2ccccc2)C(C)(C)C)cc1,9,-0.5,-9,1,0.8,-11,-15,-1.5,-4,7
CN(c1ccc(C(=O)N2CCN(Cc3ccc4c(c3)OCO4)CC2)cc1)S(C)(=O)=O,1,0.6,-8,-5,-8.6,12,6,-1.8,15,-4
O=C(O)c1cccc(NS(=O)(=O)c2cccc3cccnc23)c1,-1,-0.4,14,.,-1.3,3,-1,4.7,1,-1
CCOC(=O)c1sc(NC(=O)CSc2nc3cccnc3n2C)nc1C,-8,-0.3,-12,2,4.1,-2,-5,-1.2,72,37
Cc1ccc(-c2nnc(-c3cccc(NC(=O)c4cccs4)c3)o2)cc1,-9,-0.3,2,9,0.2,.,.,.,.,-5
CC(C)(C)c1cc(C(=O)O)nn1-c1ccccc1,20,-0.8,-16,-3,1.2,.,.,.,-1,1
Cc1ccc(OCCC(=O)OCC(=O)N2CCN(S(=O)(=O)c3ccc(C)cc3)CC2)cc1,1,-0.7,-14,-3,3.4,-3,-7,0.8,-1,-1
COc1ccc(CCNC(=O)COC(=O)/C=C/c2ccc(OC)cc2OC)cc1,1,-0.1,.,3,-2.4,-8,-11,4.3,0,.
C/C(Cn1cnc([N+](=O)[O-])n1)=N\NC(=O)c1ccccc1O,0,0.7,56*,1,0.5,10,10,-2.9,-20,16
CC(=O)Nc1nc(NC(=O)/C=C/c2ccccc2)n(-c2ccccc2)n1,6,0.0,27,13,-0.1,.,.,.,0,-3
Cc1cc(C)nc(/N=C(\N)Nc2ccc(S(=O)(=O)O)cc2)n1,-7,.,-1,.,.,19,19,0.3,.,-22
O=[N+]([O-])c1ccc(NC(=S)N2CCc3ccccc32)cc1,-3,-1.7,.,2,-0.3,-19*,-5.8*,1.3*,-4,-36
COc1ccc2c(OC)cc(=O)n(C)c2c1,0,0.5,8,-7,1.3,.,.,.,1,-11
Cc1ccc([N+](=O)[O-])c(NC(=O)COC(=O)C2CC3CCCC(C2)C3=O)c1C (configuration not stated),-3,1.1,-7,.,0.4,28,6,6.1,-3,-10
CCC(C(=O)NC1CCCC1)N(C(=O)Cn1nnc(-c2ccc(C)o2)n1)c1cccc(O)c1 (configuration not stated),2,0.3,14,0,-0.3,3,-2,3.6,.,-8
Cc1ccc(C(=O)N2CCN(S(=O)(=O)N3CCCCCC3)CC2)cc1,-3,0.2,-1,-1,3.1,-1,3,1.0,.,11
COc1ccc(/C=C2/SC(=O)N(CCC(=O)Nc3ccccc3C(=O)O)C2=S)cc1,4,1.0,-3,-7,-6.1,2,2,-0.5,24,-2
COc1ccc(-n2c3c(c(=O)[nH]c2=O)C(C(F)(F)F)(C(F)(F)F)N=C(CC(C)C)N3)cc1,3,-1.5,4,0,0.1,.,.,.,-3,-5
COc1ccc(C(=O)N/N=C(\C)CC(=O)Nc2ccc3c(c2)OCCO3)c(OC)c1,10,1.0,-15,-1,0.4,3,-1,-0.6,6,4

# Exported with two lines to a compound: two of the compounds above.
# The line under a structure holds: B2AR ag | A1 inh | T cruzi repl | Beta apoptosis | LANA-H2B inh | Ecoli rRNA inh | Ecoli rRNA inh OD600 | Ecoli rRNA inh RFP | ALR inh | Calb FLC
> COc1ccc(-n2c3c(c(=O)[nH]c2=O)C(C(F)(F)F)(C(F)(F)F)N=C(CC(C)C)N3)cc1
    3 | -1.5 | 4 | 0 | 0.1 | . | . | . | -3 | -5
> COc1ccc(C(=O)N/N=C(\C)CC(=O)Nc2ccc3c(c2)OCCO3)c(OC)c1
    10 | 1.0 | -15 | -1 | 0.4 | 3 | -1 | -0.6 | 6 | 4

# (continued)
SMILES,B2AR ag,A1 inh,T cruzi repl,Beta apoptosis,LANA-H2B inh,Ecoli rRNA inh,Ecoli rRNA inh OD600,Ecoli rRNA inh RFP,ALR inh,Calb FLC
O=C(c1cnn2c1NC(c1ccc(Br)cc1)CC2C(F)(F)F)N1CCN(C23CC4CC(CC(C4)C2)C3)CC1 (configuration not stated),2,-0.5,13,0,4.5,.,.,.,17,2
CC(=O)c1[nH]c(C)c(C(C)=O)c1C,2,0.5,-3,-7,-2.4,.,.,.,-5,-4
Cc1c(C(=O)Nc2c3c(nn2C(C)(C)C)CS(=O)(=O)C3)cccc1[N+](=O)[O-],18,-0.7,-10,-6,3.8,3,5,0.0,0,0
Cc1ccc(C(=O)Cn2cccn2)cc1,-1,0.3,-14,-3,2.7,11,15,2.6,-10,?
COc1ccc(N2CCN(c3ccc(C(N)=O)cc3[N+](=O)[O-])CC2)cc1,7,0.1,-5,-3,.,-8,0,1.1,62,-16
CC1CCCN(S(=O)(=O)c2ccc(C(=O)Nc3ccccc3-c3nc4ccccc4[nH]3)cc2)C1 (configuration not stated),3,0.4,22,15,2.5,.,.,.,44,0
CN(C)S(=O)(=O)c1ccc(NC(=O)C2CCCN(C(=O)c3ccc(Cl)cc3)C2)cc1 (configuration not stated),3,-0.4,13,-1,5.4,.,.,.,.,-5
COc1ccc(NC(=O)CCNC(=O)Cn2ccc3ccccc3c2=O)cc1OC,8,-0.5,3,3,2.1,.,.,.,-8,-7
O=C(CCCN1C(=O)/C(=C/c2ccccc2Cl)SC1=S)N1CCOCC1,13,-10,-4,-46,-5.6,1,1,-0.1,6,45
C=CCN1C=C2C(=O)C(C)(OC(=O)CCc3ccccc3)C(=O)C=C2C=C1c1ccc(C#N)cc1 (configuration not stated),20,-0.1,14,1,4.2,.,.,.,-14,31
O=C(/C=C/c1cccc([N+](=O)[O-])c1)N1CCN(c2ccccn2)CC1,-2,0.0,22,1,2.2,1,7,-1.5,37,-5
Cc1ccc2ncccc2c1NS(=O)(=O)c1ccccc1,-6,2.0,-2,1,2.3,.,.,.,.,19
O=C(c1ccccn1)N1CCCC(N2CCN(c3ccc(F)cc3)CC2)C1 (configuration not stated),-5,0.5,-7,-4,5.7,6,16,1.6,97*,-3
Cc1n[nH]c(C)c1S(=O)(=O)N1CCCC(C(=O)Nc2ccc3c(c2)OCCO3)C1 (configuration not stated),.,0.6,-3,2,4.4,.,.,.,0,-3
Nc1c(N(CCC2=CCCCC2)C(=O)c2ccco2)c(=O)[nH]c(=O)n1Cc1ccccc1,2,-0.2,13,0,-1.0,6,-3,3.3,-8,-2
COc1cc(OC)cc(C(=O)NC(C(=O)Nc2ccc3c(c2)OCCO3)C(C)C)c1 (configuration not stated),-4,-0.6,.,-1,-1.7,4,0,-3.5,.,.
Cc1ccccc1C(=O)Nc1ccc2c(c1)OCO2,1,0.5,-8,-3,0.6,.,.,.,0,-8
COc1ccc(-c2cc(C3CCN(c4ncccc4[N+](=O)[O-])CC3)[nH]n2)cc1,15,0.5,44,6,4.9,.,.,.,-12,-9
CC(C)CCNC(=O)C1CCN(S(=O)(=O)c2ccc3c(c2)CC(C)N3C(=O)C2CCC2)CC1 (configuration not stated),-9,-0.3,-18,8,-2.2,-6,1,-2.1,0,-6
CCc1ccc(NC(=S)N2CCC(NC(=O)c3ccccc3OC)CC2)cc1,-8,1.3,-6,3,1.0,5,-23,-0.5,.,-7
CC(OC(=O)/C=C/c1ccccc1Cl)C(=O)NC1CCCCC1C (configuration not stated),-3,1.1,-1,1,-7.3,-4,-8,-3.3,4,34
CCc1nc(SCC(=O)O)c(C#N)cc1C,-4,0.7,-21,.,-1.0,2,-1,-2.6,-1,-3
Cc1cccc(NC(=O)CSc2nc(=O)n3ccccc3n2)c1C,6,1.7,-6,-6,5.6,-2,3,-1.2,-1,-1
O=C(N/N=C\c1cccnc1)c1ccc(Br)s1,-8,1.2,14,-3,3.9,3,3,-1.0,-28,15
Cc1ccccc1/C=N/Nc1nc2ccccc2[nH]1,4,-0.2,32,.,0.4,-52,-80,-14,73,6
CC(=O)Nc1cccc(C(=O)NC(C)c2ccc(-n3ccnc3)cc2)c1 (configuration not stated),16,-1.2,-9,-2,-4.7,6,9,-2.8,2,-8
CC(C)[C@H](NC(=O)NCc1ccc(F)cc1)C(=O)O,-1,0.8,0,1,-2.5,7,7,-7.4,-4,3
CCCSc1nnc(CSc2nc(C)cc(C)n2)n1C,1,1.1,8,4,7.1,0,1,-4.1,0,20
CCOC(=O)C(CSCC(=O)c1ccc(Cl)cc1Cl)NC(=O)OC(C)(C)C (configuration not stated),4,-1.2,-2,-3,4.2,.,.,.,.,-1
COc1cc(S(=O)(=O)NCc2cccnc2)c(OC)cc1Br,-10,0.1,-19,-2,-2.1,.,.,.,3,6
CCOC(=O)c1sc2ccc(S(=O)(=O)N3CCOCC3)cc2c1N,-4,-1.1,9,-12,3.1,.,.,.,6,-1
CC(C)N1CCC(N2CCN(CC#Cc3ccccc3)CC2CCO)CC1 (configuration not stated),-5,-0.3,-3,.,-1.5,17,13,-0.4,-5,-3
COc1ccccc1CCNC(=O)C(=O)NCC1OCCN1S(=O)(=O)c1ccc(Br)cc1 (configuration not stated),-11,-0.4,-13,.,-1.0,.,.,.,2,-2
Nc1nc(SCc2ccc3c(c2)OCCO3)n[nH]1,12,-0.1,-11,-4,-2.1,.,.,.,-5,-5
COc1cc2cc(C)c(SCC(=O)N3CCOCC3)nc2cc1OC,9,0.7,-5,.,2.6,.,.,.,13,3
CC(C)Oc1cc(NC(=O)CS(=O)CC(=O)Nc2cccc(C(F)(F)F)c2)c(Cl)cc1Cl (configuration not stated),-12,-0.7,1,-2,-0.4,-28,-42,20,-6,?
CC1(c2ccccc2)NC(=O)N(CC(=O)Nc2nc(-c3ccccn3)cs2)C1=O (configuration not stated),0,0.4,34,13,-1.9,-30,-61,12,.,-1
Cc1ccccc1-c1noc(CCC(=O)NCC2CCCO2)n1 (configuration not stated),-3,-0.1,-3,3,-1.4,.,.,.,.,3

# Looked up by compound from the entries so far:
SMILES,B2AR ag,A1 inh,T cruzi repl,Beta apoptosis,LANA-H2B inh,Ecoli rRNA inh,Ecoli rRNA inh OD600,Ecoli rRNA inh RFP,ALR inh,Calb FLC
CC1(c2ccccc2)NC(=O)N(CC(=O)Nc2nc(-c3ccccn3)cs2)C1=O (configuration not stated),0,0.4,34,13,-1.9,-30,-61,12,.,-1
CC(=O)Nc1cccc(C(=O)NC(C)c2ccc(-n3ccnc3)cc2)c1 (configuration not stated),16,-1.2,-9,-2,-4.7,6,9,-2.8,2,-8
CC(OC(=O)/C=C/c1ccccc1Cl)C(=O)NC1CCCCC1C (configuration not stated),-3,1.1,-1,1,-7.3,-4,-8,-3.3,4,34
CCCSc1nnc(CSc2nc(C)cc(C)n2)n1C,1,1.1,8,4,7.1,0,1,-4.1,0,20
CC(C)[C@H](NC(=O)NCc1ccc(F)cc1)C(=O)O,-1,0.8,0,1,-2.5,7,7,-7.4,-4,3

# Source: PubChem BioAssay
